TRPV1 PAM: HTS Assay for Compounds that Act as Potentiators of the Vanilloid Receptor 1. TRPV1-expressing cells, Fluo-8 calcium influx, capsaicin EC20 potentiation; host cell line not named in the record; control for the full effect not named in the record. potentiation, % at 8.33 µM. Transient receptor potential cation channel subfamily V member 1 (Homo sapiens), Q8NER1. 320,000 tested, 0.02% active; active means potentiation above 80%; inconclusive means 30% to 80%; inactive means below 30%; also: 0% is about no effect
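Cells expressing TRPV1 were dye-loaded with Fluo-8 and read kinetically: 10 s baseline, 3 min after compound (agonist portion), then 2 min after EC20 capsaicin (allosteric enhancer portion). Calcium-bound dye fluorescence at 480/520 nm.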
D2 potentiator: Beta-Arrestin HTS for Positive Allosteric Modulators of the Human D2 Dopamine Receptor: Potentiators; D(2) dopamine receptor (Homo sapiens), P14416; DiscoveRx D2 beta-arrestin cells, luminescence, 90 min; 100% = 57 uM dopamine signal; potentiation, % (test concentration not listed); 360,000 tested, 0.23% active; active = potentiation of 50% or more; inconclusive = 30% to 50%; inactive = 30% or less;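 also: compound concentration not given in the record; tested on top of an EC20 dose of dopamine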
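D2 cells co-treated with compound plus 50 nM dopamine (EC20) for 90 min at 37 deg C to detect potentiation. Beta-arrestin recruitment was read as enzyme-fragment luminescence after 1 h at ambient temperature. Full response was set by 57 uM dopamine.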
Six1-Eya2 blk: qHTS Assay for Inhibitors of the Six1/Eya2 Interaction | AlphaScreen GST-Six1/His-Eya2 binding, biochemical; hits give low values; control for the full effect not named in the record | Homeobox protein SIX1 (Homo sapiens) + Protein phosphatase EYA2 (Homo sapiens), … | activity change, % (no concentration beside the values) | 360,000 tested, 0.56% active; in the data active = activity change below about -65%; inconclusive = about -30% to -65%; inactive = above about -30%; also: % is scaled to controls: 0 for no effect and ±100 for the full control effect; compound concentration not given in the record
Target sequence (O00167 whole entry, looked up): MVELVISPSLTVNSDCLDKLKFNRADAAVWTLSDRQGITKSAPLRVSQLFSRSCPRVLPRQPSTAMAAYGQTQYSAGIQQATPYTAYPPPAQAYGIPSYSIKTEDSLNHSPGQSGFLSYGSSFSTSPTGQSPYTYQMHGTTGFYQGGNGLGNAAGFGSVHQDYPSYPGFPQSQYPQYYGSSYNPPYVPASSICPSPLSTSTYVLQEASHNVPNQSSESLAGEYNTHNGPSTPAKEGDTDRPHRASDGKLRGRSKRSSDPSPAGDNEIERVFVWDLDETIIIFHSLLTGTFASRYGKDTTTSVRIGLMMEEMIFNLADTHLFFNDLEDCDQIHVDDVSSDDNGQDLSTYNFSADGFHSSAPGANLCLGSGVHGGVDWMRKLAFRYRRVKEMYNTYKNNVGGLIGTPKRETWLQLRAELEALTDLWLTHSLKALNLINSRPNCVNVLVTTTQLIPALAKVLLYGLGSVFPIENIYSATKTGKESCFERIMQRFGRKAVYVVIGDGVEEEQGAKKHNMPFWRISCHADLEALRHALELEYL
Target sequence (Q15475 whole entry, looked up): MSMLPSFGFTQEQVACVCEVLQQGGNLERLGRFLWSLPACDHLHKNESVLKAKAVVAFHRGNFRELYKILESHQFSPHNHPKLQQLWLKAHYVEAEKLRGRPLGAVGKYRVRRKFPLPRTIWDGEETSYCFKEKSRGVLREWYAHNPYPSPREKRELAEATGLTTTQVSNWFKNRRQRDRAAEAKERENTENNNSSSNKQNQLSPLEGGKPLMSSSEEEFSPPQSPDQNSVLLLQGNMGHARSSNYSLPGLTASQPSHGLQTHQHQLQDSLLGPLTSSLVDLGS
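Six1/Eya2 binding was read as AlphaScreen signal after compounds were pinned into GST-Six1 plus His-tagged Eya2 (5X stock 250/500 nM) in pH 8.0 Tris/NaCl/TCEP buffer, beads added, then incubated 1 h, 37 C, dark.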
TRPML1 agonist: qHTS for Agonists of the Human Mucolipin Transient Receptor Potential 1 (TRPML1). Mucolipin-1 (Homo sapiens), Q9GZU1. TRPML1-expressing cells, Ca2+ dye fluorescence, FDSS; host cell line not named in the record; reference of the full effect not given here. activation, % (concentration not given with the values). 410,000 tested, 0.12% active. AID 624414, 2012; in the data active = activation above about 50%; inconclusive = about 30% to 50%; inactive = below about 30%; also: 0% is about no effect; the text of the record puts the active cut at 80%
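Tet-induced TRPML1-DL cells, 1,500 per well, cultured overnight, were loaded with a no-wash Ca2+ dye for 45–90 min. Calcium fluorescence was recorded on the FDSS for 110 s after compound addition, before the EC80 agonist (4 uM 54-4) was added.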
CtBP-E1A inh: qHTS Assay for Inhibitors of the CtBP/E1A Interaction. AID 651724, 2012. AlphaScreen GST-E1A/His-CtBP binding, 1536-well; hits give low values; control for the full effect not named in the record. CtBP / adenovirus E1A interaction (AlphaScreen). activity change, % (no concentration beside the values). 340,000 tested, 0.49% active; in the data active means activity change below about -65%; inconclusive means about -30% to -65%; inactive means above about -30%; also: % is scaled to controls: 0 for no effect and ±100 for the full control effect; compound concentration not given in the record
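Steps: dispense buffer (Tris pH 8.0, NaCl 300 mM, TCEP 1 mM, BSA, Tween 20); add 5X protein mix (GST-E1A, His-CtBP, 125 nM each); pin 23 nL compound; 2 h at 37 °C, dark; add 5X beads (50 ug/mL); 1 h; read.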
TRPML1 blocker: qHTS for Inhibitors of the Human Mucolipin Transient Receptor Potential 1 (TRPML1); 390,000 tested, 0.02% active; TRPML1-inducible cells, Ca2+ dye fluorescence, FDSS; hits give low values; inhibition of EC80 agonist-evoked calcium signal; Mucolipin-1 (Homo sapiens), Q9GZU1; activity change, negative = inhibition, % (test concentration not listed); in the data active means activity change below about -50%; inconclusive means about -30% to -50%; inactive means above about -30%;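 also: stimulus is agonist 54-4 at its EC80 concentration; % is scaled to controls: 0 for no effect and ±100 for the full control effect; compound concentration not given in the record; the text of the record puts the active cut at -80%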
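Tet-induced TRPML1-DL cells loaded with Ca8 no-wash calcium dye were read kinetically on FDSS. Compound addition was followed by EC80 agonist 54-4 (4 uM final); inhibition was read over 110 s.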
Starred values were filed as active, the others as inactive; ? = inconclusive; . = no result given; & = joins results of further samples.

Preview, 4 compounds:
SMILES	TRPV1 PAM	D2 potentiator	Six1-Eya2 blk	TRPML1 agonist	CtBP-E1A inh	TRPML1 blocker
CCCCCN(C(=O)CCC(=O)OC(C)C(=O)c1ccc(Cl)cc1)c1c(N)n(CCCC)c(=O)[nH]c1=O (stereo unspecified)	-11.2	-5.5	8.9	0.0	3.2	-3.2
COc1cc(/C(=C/c2ccccc2)c2ccccc2)c2c(c1)oc1ccccc12	-3.0	-6.4	2.9	-0.2&0.0	4.5	14.8
COc1ccc(C2N(c3ccc(C)cc3)CCN2c2ccc(C)cc2)cc1O	4.8	-8.3	?	-0.5	-14.9	-2.4
O=C(O)/C=C/C(=O)N1CCc2ccccc21	2.2	-13.1	0.3	0.0	.	4.8

All compounds of this part, from the first entry:
SMILES	TRPV1 PAM	D2 potentiator	Six1-Eya2 blk	TRPML1 agonist	CtBP-E1A inh	TRPML1 blocker
CCCCCN(C(=O)CCC(=O)OC(C)C(=O)c1ccc(Cl)cc1)c1c(N)n(CCCC)c(=O)[nH]c1=O (stereo unspecified)	-11.2	-5.5	8.9	0.0	3.2	-3.2
COc1cc(/C(=C/c2ccccc2)c2ccccc2)c2c(c1)oc1ccccc12	-3.0	-6.4	2.9	-0.2&0.0	4.5	14.8
COc1ccc(C2N(c3ccc(C)cc3)CCN2c2ccc(C)cc2)cc1O	4.8	-8.3	?	-0.5	-14.9	-2.4
O=C(O)/C=C/C(=O)N1CCc2ccccc21	2.2	-13.1	0.3	0.0	.	4.8
Cc1nc(COC(=O)c2cc(O)c3ccccc3c2O)cs1	-5.5	0.8	-1.4	.	1.2	.
Cc1[nH]c2ccccc2c1SCC(=O)N1CCCCC1	28.0	-3.3	-8.9	-0.4	-1.9	-3.6
COc1cc(NC(=O)Nc2ccccc2OC)c(OC)cc1NC(=O)CN1CCCCC1	1.9	-22.7	?	1.0	?	-7.2
Fc1ccccc1N1CCN(C2CCCN(Cc3ccccc3C(F)(F)F)C2)CC1 (stereo unspecified)	-5.6	-3.6	-4.3	0.7	-6.5	1.3
Cc1ncc(CO)c(CO)c1O	-0.1	-4.0	2.0	-0.3	2.1	-7.6
Cc1ccc(Cn2ccc(NC(=O)c3nn(C)cc3Cl)n2)cc1	-26.2	4.4	-1.6	3.4	0.7	0.4
O=C1CCC/C=C\C[C@H](CC(=O)N(CCO)Cc2ccccc2)C(=O)N2CCC[C@@H]2CO1	.	-7.2	6.2	-0.3	4.3	-8.4
O=S(=O)(c1ccccc1)c1ccc(C(F)(F)F)cn1	-1.5	-4.7	0.7	0.6	6.1	13.5
Cc1ccnc(NC(=O)c2cc3ccccc3o2)c1	-15.2	-18.4	7.8	0.1	0.7	-12.0
COc1cc(/C=N/NC(=O)c2ccccc2NS(=O)(=O)c2cccs2)ccc1O	15.3	-7.1	-21.2	2.6	-29.9	-24.0
O=C1CCCCN1CCC(=O)N1CCCC(N2CCN(c3cccc(Cl)c3)CC2)C1 (stereo unspecified)	-6.1	-19.0	1.7	-0.3	-6.3	-2.4
CCC(CC)NC(=O)c1cc(OC)c(OC)cc1[N+](=O)[O-]	-4.9	1.4	5.5	-0.8	-0.1	16.8
Cc1ccc(CNC(=O)CSc2ncccn2)cc1	4.3	-20.1	-15.9	0.0	2.0	-4.0
CCOC(=O)c1sc(C)c2c(=O)n(CC)nnc12	4.8	-3.7	-1.0	-0.3	-0.8	-23.4
CN(C(=O)COC(=O)c1ccc(Cl)nc1)c1c(N)n(Cc2ccccc2)c(=O)[nH]c1=O	-15.6	-2.6	-0.1	-0.6	.	6.2
Cc1noc2ncnc(Oc3ccc4ccccc4c3)c12	.	28.5	12.4	0.9	4.3	-2.8
CN(C)c1ccc(-c2ccnc3c2CC(C)(C(=O)NCc2ccccc2)O3)cc1 (stereo unspecified)	.	-3.0	?	-1.1	?	.
COc1cccc(C(NC(C)=O)c2nc(-c3ccncc3)cs2)c1 (stereo unspecified)	.	-0.6	2.9	0.1	4.1	.
O=C(CN1C(=O)COc2ccccc21)NCc1ccc(C(=O)O)cc1	-11.7	-10.3	8.0	-0.2	7.1	26.3
Cc1cccc(Nc2cc(=O)n(C)c(=O)[nH]2)c1	-1.0	3.3	1.9	0.3	4.5	7.9
Cc1ccc2nc(-c3ccccn3)[nH]c2c1	-17.9	-4.2	-16.7	0.8	-22.3	9.2

Entries of single compounds, quoted from the list. Values in the order: TRPV1 PAM	D2 potentiator	Six1-Eya2 blk	TRPML1 agonist	CtBP-E1A inh	TRPML1 blocker
`Cc1noc2ncnc(Oc3ccc4ccccc4c3)c12` is listed as .	28.5	12.4	0.9	4.3	-2.8
`COc1cccc(C(NC(C)=O)c2nc(-c3ccncc3)cs2)c1` (stereo unspecified) is listed as .	-0.6	2.9	0.1	4.1	.

Continued:
SMILES	TRPV1 PAM	D2 potentiator	Six1-Eya2 blk	TRPML1 agonist	CtBP-E1A inh	TRPML1 blocker
C#CCOc1ccc(Cl)cc1/C=C1/C(=O)ON=C1C	-15.2	-3.5	3.6	0.3	10.1	0.6
Cc1nn(Cc2ccccc2)c(=O)n1N(C)c1ncc(C(F)(F)F)cc1Cl	-9.1	-8.5	-0.9	1.1	8.8	16.5
COc1ccc(NS(=O)(=O)c2c(F)cc(F)c(Cl)c2F)cc1S(=O)(=O)N1CCCCC1	8.5	-3.7	4.0	0.7	11.0	9.0
Cc1cc(=O)oc2cc(NC(=O)c3cc(F)ccc3F)ccc12	0.8	-3.6	2.2	-0.1	.	12.6
COc1ccccc1Cn1nc(C(=O)O)c2ccccc2c1=O	5.0	-12.6	-14.9	-0.1	0.0	-5.5
O=C(CCC1CCCC1)N1CCN(C2CCCC2)CC1	-31.7	-24.5	5.2	-0.9	7.5	-14.8
NNC(=O)CSc1nnc(-c2ccccc2)n1-c1ccccc1	-6.3	-3.5	0.0	1.0	-18.1	16.2
Cn1c(=O)c2c(-c3ccccc3)n(C3CCCCC3)cc2n(C)c1=O	14.5	5.2	-1.8	0.6	-3.2	4.3
Cc1ccc(NC(=O)CSc2nnc(COc3ccccc3F)n2N)cc1S(=O)(=O)N1CCOCC1	.	2.0	0.9	0.3	15.3	-28.6
CC(=O)c1cccc(NC(=O)C2C3C=CC(C4CC34)C2C(=O)O)c1 (stereo unspecified)	9.6	-3.6	9.6	-0.6	-2.6	-3.6
COc1cc(C2C(C#N)=C(N)Oc3n[nH]c(-c4cccnc4)c32)cc(Br)c1O (stereo unspecified)	2.5	-7.2	-10.7	2.2	-2.2	12.3
Cc1ccc(-n2nc(C)c3c(C)c(CCC(=O)Nc4ccc(CN5CCCC5)cc4)c(C)nc32)cc1	-5.2	-2.6	-10.2	0.5	?	-24.4
COc1cccc(CNC(=O)[C@@H]2CCCN2C(=O)[C@H]2CCCCN2C(=O)c2cccc(Cl)c2)c1	.	.	1.1	-1.0	5.5	.
Cc1cccc(N2C(=O)C(Oc3ccc(Cl)cc3Cl)C2C=O)c1C (stereo unspecified)	-0.5	-20.7	-3.9	1.7	-2.7	1.6
CN(C)CCCN(C(=O)c1ccc(S(=O)(=O)N2CCOCC2)cc1)c1nc2cc3c(cc2s1)OCO3	3.2	-13.3	-0.9	-0.3	2.3	15.0
O=C(c1ccco1)N1CCCC(c2nc(-c3ccc(S(=O)(=O)NCc4ccccc4)cc3)no2)C1 (stereo unspecified)	0.3	3.9	-5.9	0.9	-4.9	-8.3
CC12CCC(C(=O)N3CCN(Cc4ccccc4)CC3)(OC1=O)C2(C)C (stereo unspecified)	10.7	-10.6	-0.9	1.2	-0.8	-16.5
CCOc1cc(/C=C(\C(=O)O)c2ccc(S(=O)(=O)N3CCCC3)s2)ccc1OC	27.6	0.4	-3.8	0.5	-16.6	22.4
C[C@H](NC(=O)OC(C)(C)C)c1nnc(SCC(=O)c2ccc(Cl)cc2)o1	-3.4	10.7	-1.0	1.9	0.6	-12.6
COc1ccccc1CCC(=O)Nc1ccc(S(=O)(=O)Nc2cc(C)nc(C)n2)cc1	2.1	-12.7	-15.9	-0.8	-25.3	-4.0
O=C(CSC1=NCCN1)Nc1cccc(C(F)(F)F)c1	-3.9	-13.1	10.1	-0.2	6.8	-9.4
CCOc1cccc(/C=N/Nc2ccc(S(=O)(=O)N(CC)CC)cn2)c1O	9.7	-43.4	-10.8	-0.6	-19.4	-17.2
CC(C)(O)c1ccc2c(c1)CCC1C(C)(C(=O)O)CCCC21C (stereo unspecified)	-13.4	0.0	-1.8	-0.1	-0.8	10.2
CN(CC(=O)NCCc1ccccc1)S(=O)(=O)c1ccccc1	2.6	-7.4	7.8	-1.5	-19.5	-4.9
COc1ccc(N(CC(=O)NCc2ccco2)S(=O)(=O)c2ccc(OC)c(OC)c2)cc1	-0.3	-1.0	-9.5	0.3	2.8	-5.4

New compounds follow
SMILES	TRPV1 PAM	D2 potentiator	Six1-Eya2 blk	TRPML1 agonist	CtBP-E1A inh	TRPML1 blocker
CCOC(=O)c1cccnc1SC(CC)C(=O)N1CCOCC1 (stereo unspecified)	9.0	-3.9	-2.5	2.5	4.8	-1.0
Cc1ccc(O)c(C(CC(=O)NCc2ccco2)c2ccccc2)c1 (stereo unspecified)	-17.3	-5.5	-6.3	0.9	-8.2	22.1
O=C1CC(NNc2ccccc2)C(=O)N1c1cccc(Cl)c1 (stereo unspecified)	-26.8	-24.2	-4.7	0.0	-10.6	-6.3
CCCOc1ccc(-c2nc(N3CCN(C)CC3)c3ccccc3n2)cc1	26.8	-25.5	-9.1	.	-3.5	.
CC1CCN(Cc2c(O)ccc3c(=O)c(-c4nc5ccccc5s4)c(N)oc23)CC1	6.6	-9.5	-4.0	0.4	.	-5.6
COc1ccc(S(=O)(=O)N2CCC[C@@H]2C(=O)N2CCC[C@H]2C(=O)NCc2ccncc2)cc1C	.	.	13.1	-0.4	-20.8	.
CCC(=O)Nc1ccc(NC(=O)/C=C/c2ccc(Cl)cc2)cc1	-18.4	-3.8	8.2	0.2	0.4	12.2
C=CCNc1nc2c(c(=O)[nH]c(=O)n2C)n1Cc1cccc(C)c1	-13.5	-5.4	3.1	-0.6	3.4	-2.9
O=C1CCCc2nn(-c3ccccc3)nc21	-1.1	1.8	2.3	0.9	-3.7	11.5
CC(=O)Oc1c2occc2cc2ccc(=O)oc12	-19.7	21.9	-1.9	-0.7	-6.8	-1.3
CC(=O)Nc1ccc(N/C=C/C(=O)c2ccccc2)cc1	4.9	-7.2	-6.4	-0.5	2.2	3.1
O=C1CSC(c2cccnc2)N1c1ccccc1 (stereo unspecified)	7.9	-2.4	-2.2	0.7	.	36.2
Cc1cccc(NS(=O)(=O)c2ccc(C(=O)N3CCN(c4ccccc4O)CC3)cc2)c1C	5.3	14.8	-8.3	0.5	-1.8	31.4
O=C1CC2(CCN(C(=O)c3ccccc3[N+](=O)[O-])CC2)Oc2ccccc21	-24.6	11.9	1.6	0.1	14.2	7.0

Screening data as filed in PubChem BioAssay.
